HTT promoter inh: HTT promoter inhibition. AID 1508623. 0.93% of 48,000 active. Potency, µM (titrated, usually from 57.5 µM), for the others: at the top dose activity change, negative = inhibition, hits mostly inhibitors. HEK293 HTT promoter firefly luciferase reporter (activity 0% = vehicle and -100% = no light), 24 h; active means well fitted inhibition curve with a large enough effect; inconclusive means small, poorly fitted or top-dose-only effect; inactive means no such curve, though single readings can be large or run the other way; further: nearly all actives have a fitted effect of over 50% in size
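Firefly luciferase readout (Dual-Glo, 10 min RT) after 24 h, 37 °C compound exposure (final up to 57.5 uM) of HEK293 reporter cells cultured 24 h beforehand; PTC124 at 50 uM final as control inhibitor; activity scaled vehicle 0%, zero RLU -100%.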
PMP22 txn: modulates PMP22 transcription in S16 Schwann cells. S16 Pmp22-F2sN Schwann cells (luciferase reporters placed in the Pmp22 gene), FLuc/NLuc coincidence luminescence, 24 h. Potency, µM (highest dose often 57.5 µM), without a hit: top-dose activity change, negative = inhibition, most hits filed as inhibitors. 2% of 43,000 active. AID 1508649; active = clear falling dose curves in both reporters; inconclusive = both reporters move, but less clearly or upward; inactive = either reporter flat; the % is the NLuc reporter signal; further: on the % scale 0 is the no-effect control and ±100 the full control effect; some results filed as inactive show a strong effect at the top dose
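Transcriptional readout in edited S16(c9) cells: two luciferases reported from the Pmp22 locus, measured in turn after 24 h compound incubation.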
Numbers without * were called inactive; ? = inconclusive; . = no result given; & = joins results of further samples; [ ] = dose if it differs, or a comment. Potency means the concentration at half of the fitted maximal effect.

A first look, 2 compounds:
Below each compound: HTT promoter inh	PMP22 txn
O=C(NCc1cccn1Cc1ccccc1)Nc1ccc(Br)cc1F
    -13%	?
Cc1ccc(Cl)cc1-n1c(SCC(=O)NCc2ccccc2)nc2n[nH]c(C)c2c1=N
    ?	?

All compounds of this part, from the first entry:
Below each compound: HTT promoter inh	PMP22 txn
O=C(NCc1cccn1Cc1ccccc1)Nc1ccc(Br)cc1F
    -13%	?
Cc1ccc(Cl)cc1-n1c(SCC(=O)NCc2ccccc2)nc2n[nH]c(C)c2c1=N
    ?	?
O=C1c2oc3ccccc3c(=O)c2C(c2ccc(Br)cc2)N1c1ccccn1 (stereo not given)
    -6%	19%
Cc1cc(C)cc(OCC(=O)Nc2ccc(-c3nc4ccccc4s3)cc2)c1
    40%[activator]	?
COc1ccccc1CNC(=O)CS(=O)(=O)Cc1nc(-c2ccccc2C)oc1C
    -10%	30%
Cc1ccccc1NC(=O)c1cnc2sc(N3CCCC3)nn2c1=O
    11%	0%
Cc1ccc(S(=O)(=O)c2nnn3c2nc(NC(C)C)c2cc(Cl)ccc23)cc1C
    -11%	1%
O=C(/C=C/c1ccccc1)N1CCN(Cc2cc(=O)n3nc(-c4ccccc4Cl)sc3n2)CC1
    -24%	?
CCOc1ccccc1NC(=O)C(Cc1ccccc1)NS(=O)(=O)c1ccc(Br)s1 (stereo not given)
    ?	?
Cc1ccc(-c2cc(C(=O)N3CCN(S(=O)(=O)c4ccc(Br)s4)CC3)[nH]n2)c(C)c1
    ?	-26%
CS(=O)(=O)N1CCc2cc(C(=O)Nc3cccc(F)c3)ccc21
    32%[activator]	2%
CC(C)OCCCNC(=O)CCCN1C(=O)CCn2nc(-c3cccn3C)cc21
    -13%	-12%
Cc1ccc(-n2ncc3c(NCCCN(C)C)ncnc32)cc1Cl
    -5%	?
Cc1cccc(C)c1NC(=O)Cn1c(=O)n(CCC(=O)NCc2ccccc2Cl)c(=O)c2sccc21
    -13%	-18%
CCc1nc2nc(C)cc(Nc3ccc(Br)cc3F)n2n1
    -15%	8%
Cc1ccccc1OCCn1c(CCNC(=O)C(C)(C)C)nc2ccccc21
    4%	-39%
CCCCCOc1ccccc1Cn1c(=O)oc2ccc(C)cc21
    -6%	-7%
O=S(=O)(NCc1nc2cccnc2n1Cc1ccccc1)c1ccc2c(c1)CCCC2
    -14%	-25%
Cc1ccc(NC(=O)CSc2nnc3[nH]c(=O)cc(-c4ccccc4)n23)cc1Cl
    55%[activator]	?
Cc1ccc(S(=O)(=O)Nc2cc(Cl)ccc2C(=O)Nc2nc(-c3ccccc3)cs2)cc1
    ?	.

Complete entries, looked up by structure.
`COc1ccccc1CNC(=O)CS(=O)(=O)Cc1nc(-c2ccccc2C)oc1C` is entered as HTT promoter inh = -10%; PMP22 txn = 30%
`Cc1ccccc1NC(=O)c1cnc2sc(N3CCCC3)nn2c1=O` is entered as HTT promoter inh = 11%; PMP22 txn = 0%

Of the compounds above, three have an NH in an aromatic ring.
Below each compound: HTT promoter inh	PMP22 txn
Cc1ccc(Cl)cc1-n1c(SCC(=O)NCc2ccccc2)nc2n[nH]c(C)c2c1=N
    ?	?
Cc1ccc(-c2cc(C(=O)N3CCN(S(=O)(=O)c4ccc(Br)s4)CC3)[nH]n2)c(C)c1
    ?	-26%
Cc1ccc(NC(=O)CSc2nnc3[nH]c(=O)cc(-c4ccccc4)n23)cc1Cl
    55%[activator]	?

Other structures follow.
Below each compound: HTT promoter inh	PMP22 txn
CCN(C(=O)c1nn(-c2ccc(OC)c(Cl)c2)c(=O)c2c1c1ccccc1n2C)c1cc(OC)ccc1OC
    -16%	?
CCN(CC)c1ccc(NC(=O)Cn2c(C)c3cnn(-c4ccccc4)c(=O)c3c2C)c(C)c1
    -14%	-26%
Cc1cccn2c(=O)c3cc(C(=O)N(Cc4ccccc4)C(C)C)sc3nc12
    -4%	?
CCOc1ccc(NC(=O)C2CCCN(S(=O)(=O)c3ccc4[nH]c(=O)ccc4c3)C2)cc1 (stereo not given)
    -17%	-24%
Cc1cc(F)ccc1NC(=O)C1CCN(C(=O)c2cnn(-c3ccccc3)c2-n2cccc2)CC1
    ?	?
CC(=O)c1ccc(Nc2nc3ccccc3nc2-n2nc(C)cc2C)cc1
    -7%	-4%
Cc1ccc(NC(=O)CN2C(=O)CC(C)Sc3ccccc32)c(C)c1 (stereo not given)
    -14%	-14%
CCc1ccc(S(=O)(=O)c2nnn3c2nc(Nc2ccc(C)c(Cl)c2)c2sccc23)cc1
    0%	-2%
COCCCNC(=O)c1cc(-c2cccnc2)nc2ccc(S(=O)(=O)N3CCC(C)CC3)cc12
    -3%	12%
Cc1c(C(=O)NCc2ccc(Cl)cc2)sc2nc3n(c(=O)c12)CCC3
    -4%	5%
Cc1ccccc1C(=O)Nc1nnc(S(=O)(=O)N2c3ccccc3CC2C)s1 (stereo not given)
    ?	3%
COc1cccc(NC(=O)CCN2CCN(c3ccccc3)CC2)c1
    -5%	-7%
Brc1ccc2nc(SCCOc3ccccc3)[nH]c2c1
    9%	3%
CCOC(=O)Cn1c(=O)n(C2CCCCC2)c2nc(-c3cccc(C)c3)nc(C(N)=O)c21
    -2%	15%
CCn1cc(C(=O)NCc2ccccc2)c(=O)c2cc(S(=O)(=O)N3CCc4ccccc4C3)ccc21
    -12%	-26%
CCCOc1ccc(CNC(=O)Cn2cc3c(n2)-c2c(oc(C(=O)N4CCOCC4)c2C)CC3)cc1
    ?	?
O=C(Cc1ccc(-c2ccccc2)cc1)NCCS(=O)(=O)N1CCN(c2cccc(Cl)c2)CC1
    -28%	-1%
Cc1ccc(C)c(NC(=O)c2cc(S(=O)(=O)NCCC3=CCCCC3)ccc2F)c1
    ?	?
CCOc1ccc(CNC(=O)c2ccc3nc(CC)c(CC)nc3c2)cc1
    20%	-7%
CCOC(=O)c1cnc2nc(NCc3ccc(OCC)cc3)[nH]n2c1=O
    -2%	-5%
CCOCCc1nnc(NC(=O)C(=O)c2cc(C)n(-c3ccc(C)c(C)c3)c2C)s1
    -15%	?
CCOc1ccc(CCNC(=O)c2nnc(Cc3ccc(Cl)cc3Cl)o2)cc1OCC
    -17%	-10%
CCOc1ccc(C(=O)Nc2ccc3nc(SCC(=O)N(C)c4ccccc4)sc3c2)cc1
    ?	?
Cc1ccc(NC(=O)Cn2c(=O)n(-c3ccccc3)c(=O)c3ccc(C(=O)NCc4ccc5c(c4)OCO5)cc32)c(C)c1
    ?	-57%
COc1cc(Cl)c(C)cc1NC(=O)c1cn(C2CCCC2)c(=O)c2c1c1ccccc1n2C
    5%	14%
COc1cc(CN(C(=O)c2cccc(Cl)c2)c2ccccn2)cc(OC)c1OC
    -34%	?
CCOC(=O)c1c(S(=O)(=O)N2CCCC(C(=O)NCc3cccc(OC)c3)C2)c(C)n(C)c1C (stereo not given)
    -8%	-18%
Fc1ccc(NCc2cccn2-c2nnc(N3CCOCC3)s2)cc1
    -4%	?
O=C(CCn1ccc2cc(S(=O)(=O)N3CCCC3)ccc21)NCc1ccccc1Br
    -23%	-3%
CCc1ccc2nc(N(Cc3cccnc3)C(=O)Cc3ccccc3)sc2c1
    ?	-91%
CN(C(=O)CSc1nnc(-c2ccc([N+](=O)[O-])cc2)o1)C1CCCCC1
    4%	-34%
COc1ccc(Cn2c(=O)c3oc4ccccc4c3n(Cc3ccc(Cl)cc3)c2=O)cc1
    -5%	12%
Cc1ccc(NC(=O)C(C)n2nnc3sc4c(c3c2=O)CCCC4)cc1Cl (stereo not given)
    12%	-2%
CCOC(=O)c1cccc(NC(=O)CCSCCc2ccccn2)c1
    -11%	-9%
Cc1c(C2=CCN(S(=O)(=O)c3ccc(Cl)cc3)CC2)c2ccccc2n1CC(=O)N1CCCC1
    -29%	-28%
COc1ccccc1CNC(=O)CN(C)c1nn2c(=O)cc(C)nc2s1
    -9%	1%
Cc1ccc(N2CC(NC(=O)c3ccc(S(=O)(=O)N4CCCC4)cc3)CC2=O)cc1C (stereo not given)
    ?	?
COc1ccc(OC(=O)c2nc(SCc3ccccc3C)ncc2Cl)cc1
    6%	-20%
CCCN(C(=O)c1cn(CC(C)C)c(=O)c2cc(OC)c(OC)cc12)c1cccc(C)c1
    -23%	?
O=C(Cn1c(=O)n(Cc2ccc3c(c2)OCO3)c(=O)c2oc3ccccc3c21)Nc1ccc(F)cc1
    -9%	-22%
CCOC(=O)CSc1nc2sc3c(c2c(=O)n1CC)CCCC3
    -13%	7%
c1ccc(OCc2ccc(CCCN3CCOCC3)cc2)cc1
    -8%	.
CCCc1nn(C)c2c(=O)[nH]c(-c3cc(S(=O)(=O)N4CCN(C)CC4)ccc3OCC)nc12
    -14%&2%	.
Cc1ccc(CCNC(=O)c2ccc3c(c2)N(Cc2cccc(Cl)c2)C(=O)c2ccccc2S3(=O)=O)cc1
    -20%	-2%
COC(=O)[C@H]1[C@H]2C[C@@H]3c4[nH]c5cc(OC)ccc5c4CCN3C[C@H]2C[C@@H](OC(=O)c2cc(OC)c(OC)c(OC)c2)[C@@H]1OC
    -7%	.
COc1ccc(-n2nc(C(=O)Nc3cccc(C)n3)c3c4ccccc4n(C)c3c2=O)cc1
    -27%	?
COc1cccc(C(=O)Nc2ccccc2OCc2cc(=O)n3ccccc3n2)c1
    -1%	-23%
COc1ccc(CCNC(=O)Cn2c(=O)nc(-c3ccccc3)c3ccccc32)cc1OC
    ?	?
CNC(=O)c1ccc2nc(CCc3ccccc3)oc2c1
    47%[activator]	4%
CN(C)CCNC(=O)CN1C(=O)COc2ccc(S(=O)(=O)N3CCCC3)cc21
    -13%	-14%
Cc1cc(C)c(NC(=O)C(=O)NCCc2csc(-c3ccc(F)cc3)n2)c(C)c1
    ?	-17%
c1ccc2[nH]c(-c3cscn3)nc2c1
    67%&26%[activator]	.
Clc1cccc(CNc2cc(-c3ccccc3)nc3nncn23)c1
    ?	?
COc1ccc(OC)c(CNC(=O)C2CCN(S(=O)(=O)c3ccc4[nH]c(=O)oc4c3)CC2)c1
    1%	?
CC(C)(C)OC(=O)CN(Cc1ccc(Cl)cc1)Cc1ccc([N+](=O)[O-])s1
    -6%	.
CCN(CC)c1ccc(NC(=O)CN2C(=O)c3cccnc3Oc3ccc(Cl)cc32)c(C)c1
    4%	?
COc1ccc(CNC(=O)CN2C(=O)CSc3ccc(S(=O)(=O)N4CCOCC4)cc32)c(OC)c1
    -2%	16%
CC1=C(C(=O)Nc2ccc(Cl)cc2)C(c2ccccc2C)n2ncc(C(=O)Nc3ccc(C)cc3)c2N1 (stereo not given)
    ?	-15%
COC(=O)c1ccc(Cl)cc1NC(=O)N(Cc1ccc(C)o1)C1CCN(C(C)=O)CC1
    -15%	-6%
Cc1ccccc1OCC(=O)Nc1ccc2nc(SCc3ccccc3)sc2c1
    0%	-16%

Continued:
Below each compound: HTT promoter inh	PMP22 txn
CC(C)(Oc1ccc(C2CC2(Cl)Cl)cc1)C(=O)O (stereo not given)
    3%[116 µM]	.
CCN(CC)CCCNc1sc(S(=O)(=O)c2ccccc2)nc1S(=O)(=O)c1ccc(Cl)cc1
    -4%	?
O=C(Nc1ccc2oc(-c3cccnc3)nc2c1)c1ccc(-c2cccc(Cl)c2)o1
    ?	-20%
CCn1nc(C)c2c(-c3ccccc3)cc(=O)n(C(C)C(=O)Nc3cccc(F)c3)c21 (stereo not given)
    ?	?
Cc1cc(C)cc(NC(=O)C2CCN(C(=O)c3cnn(-c4ccccc4)c3-n3cccc3)CC2)c1
    ?	?
Cc1ccc(C)c(NC(=O)CSc2c(C)cnc3c2c(=O)n(C)c(=O)n3C)c1
    -11%	1%
CC1CCCN(CCCNC(=O)c2ccc3c(c2)N(Cc2ccc(Cl)cc2)C(=O)c2ccccc2S3(=O)=O)C1 (stereo not given)
    -25%	?
COc1ccc(Br)cc1CNC(=O)CN1C(=O)CCCc2ccccc21
    -11%	-6%
CCC(CC)c1nn2c(=O)cc(COc3ccc(NC(=O)c4ccccc4C)cc3)nc2s1
    ?	-22%
Cc1ccc(C)c(CN2C(=O)c3ccccc3S(=O)(=O)c3ccc(C(=O)Nc4cc(F)ccc4F)cc32)c1
    -20%	-9%
COc1ccc(C2CC(=O)c3cnc4c(-c5ccc(F)cc5)c(C)nn4c3C2)cc1OC (stereo not given)
    -1%	15%
N#Cc1ccccc1NC(=O)CSc1nnc(N)s1
    -13%	-2%
COc1ccc(-n2ccnc(NCc3cccs3)c2=O)cc1OC
    -17%	31%
Cc1ccsc1CN(C(=O)c1ccc(OCC(C)C)cc1)C1CCS(=O)(=O)C1 (stereo not given)
    -26%	?
CC(C)(C)C(=O)CSc1nc2ccsc2c(=O)n1Cc1ccccc1Cl
    -27%	-3%
Cc1ccccc1OCc1cc(=O)n2c(-c3ccccc3)csc2n1
    7%	-21%
COc1ccc(CCNC(=O)CN2C(=O)COc3ccc(C)cc32)cc1OC
    -18%	-4%

Screens deposited in PubChem BioAssay by National Center for Advancing Translational Sciences (NCATS).

Not a hit list; any-hit rate near 2.4%.
